ALR inh = human ALR oxidase inhibition via reduced H2O2 | purified ALR, DTT oxidation, H2O2 HRP-luminol luminescence | inhibition, % (no concentration beside the values) | 290,000 compounds, 3.8% hits;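 active means mean and each replicate at 75% or more; inconclusive means only one of the two met; inactive means neither met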;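 further: stock transfer was 7.5 nL into about 7.5 µL; 0% = neutral wells and 100% = wells with inactivated enzyme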
Target sequence (P55789 whole entry, looked up): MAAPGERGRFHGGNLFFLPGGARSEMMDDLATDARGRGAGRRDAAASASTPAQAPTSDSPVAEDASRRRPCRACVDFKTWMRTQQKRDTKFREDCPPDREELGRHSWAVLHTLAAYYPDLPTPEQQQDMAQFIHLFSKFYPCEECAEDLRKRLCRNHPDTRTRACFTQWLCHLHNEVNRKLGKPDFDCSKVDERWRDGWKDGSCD
Beta2AR agonist = agonists of human beta-2 adrenergic receptor inducing internalization; Am2.2-beta2AR cells, FAP receptor internalization, flow cytometry; reference of the scale not given here; response, % (test concentration not listed); 340,000 compounds, 0.43% hits;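 active means response above a set limit, near 3 SD of response in nonfluorescent compounds, cut at about 42% in these data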;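 further: stock transfer was 100 nL into about 11 µL; a reference agonist was the positive control; negative values mostly stem from fluorescent compounds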
Target sequence (P07550 whole entry, looked up): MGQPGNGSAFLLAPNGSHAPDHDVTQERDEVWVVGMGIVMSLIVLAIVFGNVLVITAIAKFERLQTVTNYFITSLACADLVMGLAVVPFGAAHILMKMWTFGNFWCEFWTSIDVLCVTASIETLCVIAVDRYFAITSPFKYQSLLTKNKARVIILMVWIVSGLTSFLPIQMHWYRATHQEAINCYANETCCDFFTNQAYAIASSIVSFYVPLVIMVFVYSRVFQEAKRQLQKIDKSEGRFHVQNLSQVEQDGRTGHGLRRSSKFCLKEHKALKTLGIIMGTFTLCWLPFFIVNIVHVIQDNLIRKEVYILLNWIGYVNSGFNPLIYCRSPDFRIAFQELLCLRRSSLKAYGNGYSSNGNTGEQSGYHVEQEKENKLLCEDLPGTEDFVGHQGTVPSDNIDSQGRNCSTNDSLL
Beta cell apopt = blocks beta cell apoptosis; protection from apoptosis, % (no concentration beside the values); 300,000 compounds, 0.8% hits; INS-1E cytokine-induced death, ATP luminescence, 48 h; percent of positive-control rescue, neutral wells zero;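 active means all replicates at 75% or more, or half of them and the mean; inconclusive means half reach 75% but not the mean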;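 further: 0% = cytokine-treated negative control wells and 100% = positive control rescue; higher means more ATP so stronger rescue from cytokine killing; wells of about 40 µL received 100 nL stock; the first replicate is given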
A1 inh = inhibitors of the anti-apoptotic protein A1, read as caspase activation; caspase activation, % (concentration not given with the values); 330,000 compounds, 0.066% hits; AID 2462; MEF A1-2A-BIM cells, Caspase-Glo 3/7 luminescence, 3 h; percent of clofoctol response, vehicle zero;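 active means over half of replicate activation scores above 10%, or exactly half above 10 with the replicate mean above 10; inconclusive means replicate mean below 10 yet half the replicates above 10; inactive means over half of replicates below 10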;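 further: wells of about 30 µL received 50 nL stock; many hits fall short of the cut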
Calb FLC = C. albicans growth modulation with fluconazole; C. albicans CaCi-2 (fluconazole-resistant clinical isolate) + fluconazole, Alamar Blue growth, 48 h; growth inhibition, % (no concentration beside the values); AID 1979; 300,000 compounds, 0.57% hits;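 active means most replicates above 75%; inconclusive means exactly half above 75%; inactive means most below 75%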;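 further: all wells also contain fluconazole at 8 µg/ml as a sub-toxic cotreatment; 0% = median of DMSO wells and 100% = median of geldanamycin control wells; wells of about 8 µL received 7.5 nL stock; the first replicate is given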
T cruzi inh = T. cruzi replication inhibition; T. cruzi beta-gal in NIH3T3, luminescence, 90 h; AID 1885; inhibition, % (concentration not given with the values); 300,000 compounds, 1.4% hits;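 active means mean inhibition across valid replicates above about 55%, limit read from the data; inconclusive means mean below that limit but half or more replicates reach it; inactive means mean below it, under half of replicates reach it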;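 further: signal also drops with host cell toxicity which is not excluded here; 0% = plate median of DMSO wells and 100% = zero luminescence signal; higher percent means less beta-gal luminescence so fewer parasites; stock transfer was 50 nL into about 50 µL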
Ecoli rRNA inh = selective bacterial rRNA inhibition in E. coli; E. coli WT GFP vs humanized-ribosome RFP mutants, fluorescence, 24 h; stronger effect = lower value; DMSO median 0, no signal -100; GFP signal change (wild-type ribosome), % (no concentration beside the values); 350,000 compounds, 1.6% hits; AID 720706;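 active means significant combined selectivity score with lowered wild-type GFP, culture density cut under 30%, mutant RFP and density less affected; inactive means any of these conditions unmet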; further: one replicate is shown; some compounds called inactive have numbers as strong as hits
LANA-H2B inh = blocks KSHV LANA binding to histone H2A/H2B; Q9QR71; 320,000 compounds, 0.6% hits; inhibition, % (no concentration beside the values); cell-free LANA-H2A/H2B peptide, fluorescence polarization; AID 2629; in the data active means inhibition mostly above about 10%, no sharp cut-off; inactive means mostly below about 6.7%;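 further: stock transfer was 7.5 nL into about 10 µL; 0% = median of vehicle wells and 100% = median of positive control wells; one replicate is shown; the record names a cut of 25% in any replicate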
Ecoli rRNA inh OD600 = also measured in Ecoli rRNA inh; calls as there; OD600 change, %; measured here: OD600 growth;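 optical density of the mix in the first replicate; 0 = DMSO median and -100 = no signal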
Ecoli rRNA inh RFP = recorded beside Ecoli rRNA inh, whose call it bears; RFP signal change, %; measured here: RFP humanized mutant strains;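 first replicate; 0 = DMSO median and -100 = no signal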
Starred values were filed as active, the others as inactive; i = inactive; ? = inconclusive; . = not tested or not shown.

SMILES | ALR inh | Beta2AR agonist | Beta cell apopt | A1 inh | Calb FLC | T cruzi inh | Ecoli rRNA inh | Ecoli rRNA inh OD600 | Ecoli rRNA inh RFP | LANA-H2B inh
CC(=O)Nc1ccc(S(=O)(=O)N2CCCc3ccccc32)cc1 | 0 | -7 | 15 | 1.0 | 6 | 0 | . | . | . | 6.0
COc1ccc2sc(-c3ccc(S(C)(=O)=O)cc3)c(-c3ccc4c(c3)OCCO4)c2c1 | 4 | 2 | 1 | -0.4 | . | . | -12 | -7 | 0.8 | -5.1
O=c1[nH]c(C2CCN(S(=O)(=O)c3ccc(S(=O)(=O)NC4CC4)cc3)CC2)nc2c1nnn2Cc1ccccc1 | -13 | 7 | 0 | 0.1 | 15 | 9 | 3 | -12 | 11 | -3.2
CN(C)S(=O)(=O)c1cccc(NC(=O)CCNC(=O)c2ccccc2Cl)c1 | -2 | -7 | 1 | -0.3 | -6 | -2 | . | . | . | -0.3
COC(=O)c1ccc(OCC(=O)NCCC2=CCCCC2)c(OC)c1 | . | -10 | 0 | -0.7 | . | . | -33 | -54 | 9.4 | -5.8
O=S(=O)(NCc1ccc2c(c1)OCO2)c1ccccc1F | -2 | 0 | -6 | -0.2 | -14 | 14 | -1 | 7 | 1.1 | -1.9
O=C(CSc1nnc(CNC(=O)c2ccccc2)o1)NCc1ccccc1 | -19 | -4 | -8 | -0.1 | 10 | -9 | 3 | -1 | -0.9 | 11
Cc1cc(C)cc(C(=O)N2CC(C)OC(C)C2)c1 (centres undefined) | -14 | 5 | -9 | 0.1 | -7 | -13 | . | . | . | 3.4
COc1ccc(C2(c3ccc(OC)cc3)NC(=O)N(CC(=O)Nc3ccc(OC)c(OC)c3)C2=O)cc1 | -2 | -2 | . | -2.1 | 5 | -9 | 2 | -17 | -0.2 | -4.2
COC(=O)c1c(-c2ccccc2)csc1NC(=O)c1ccco1 | -2 | -1 | 6 | -1.6 | 12 | 11 | . | . | . | 9.0
c1coc(CNc2ncnc3c2oc2ccccc23)c1 | 3 | 5 | 7 | -0.3 | . | . | . | . | . | -2.8
C/C(=N\NC(=O)c1nnn(-c2nonc2N)c1CSc1ccc(C)cc1)c1ccco1 | -6 | 0 | 3 | -0.2 | 20 | 9 | -11 | -6 | 5.0 | 3.2
Cc1ccc(C(=O)C2CCN(S(=O)(=O)c3ccc(C(=O)O)cc3)CC2)cc1 | . | -2 | -9 | 0.4 | -1 | -1 | -2 | -4 | -0.6 | -22
Cc1cc(C(=O)NNC(=S)NC(C)c2ccccc2)cs1 (centres undefined) | 60 | -1 | -1 | -0.5 | 13 | -13 | . | . | . | -2.4
CC(C)Cc1ccc(CN2CCCC(NC(=O)CCCN3CCCC3=O)C2)cc1 (centres undefined) | -8 | -7 | -6 | 0.8 | 4 | 46 | 7 | 11 | 4.3 | 0.2
CN(CCNC(=O)C1(O)c2ccccc2NC(=O)N1c1ccccc1)Cc1ccccc1 (centres undefined) | -5 | 6 | -5 | 0.4 | . | . | . | . | . | 0.7
COCCn1c(SCC(=O)Nc2ccc(C)cc2)nc2c(oc3ccccc32)c1=O | 0 | -4 | -1 | 0.7 | 3 | -7 | . | . | . | -1.2
CCOc1ccc(Nc2nc3c(C)cccc3cc2C#N)cc1 | -6 | -22 | -1 | 0.0 | -2 | 6 | 1 | -3 | -0.7 | -0.4
CCOC(=O)c1nnn(-c2nn3nnnc3c3ccccc23)c1C | 98* | 4 | -31 | 0.3 | 11 | -8 | . | . | . | -1.5
Cc1cc2c(cc1S(=O)(=O)C(C)CC(=O)NCc1ccco1)OCC(=O)N2 (centres undefined) | 1 | 3 | 0 | 0.4 | -11 | 16 | 4 | 11 | -0.8 | 6.1
O=[N+]([O-])c1ccc2nc(-c3cccnc3)[nH]c2c1 | -2 | -4 | 7 | -5.1 | 13 | -16 | -12 | -4 | -5.3 | 9.1
CC(=O)Nc1ccc(S(=O)(=O)NCC2CCC(C(=O)NCCCOC(C)C)CC2)cc1 (centres undefined) | 0 | . | 6 | -0.2 | -3 | -11 | 5 | 11 | -0.6 | -1.3
CCOC(=O)c1ccc(NC(=O)CC2C(=O)OCCN2CC)cc1 (centres undefined) | 1 | 0 | 0 | -0.7 | 10 | 11 | 8 | 7 | -0.5 | -5.0
COC(=O)c1cc(Cl)c(NC(=O)/C=C/c2ccc(Cl)cc2Cl)cc1OC | -1 | -6 | 4 | 0.7 | -1 | -36 | . | . | . | 1.0
Cc1onc(-c2ccccc2)c1CNC(=O)Nc1cccc(Cl)c1 | -6 | 0 | 35 | 0.3 | -36 | 13 | -29 | -41 | 8.8 | -3.0
COc1ccc(C(=O)Oc2c(CN3CCOCC3)cc(Cl)c3cccnc23)cc1OC | -2 | . | 7 | 0.3 | 1 | -5 | -7 | -11 | -1.8 | -3.1
O=C(CSc1ccc(-c2nc3ccccc3[nH]2)cn1)N1CCN(C(=O)c2ccco2)CC1 | -27 | 8 | 4 | -0.7 | -6 | -17 | . | . | . | -4.3
CN(C)c1ccc(CNC(=O)c2ccc(CNc3c(N4CCCCC4)c(=O)c3=O)cc2)cc1 | 98* | -2 | -1 | 0.4 | -3 | 2 | 8 | 15 | -1.0 | 3.0
Cc1cnc(NC(=O)c2nn(C)cc2[N+](=O)[O-])s1 | . | 1 | . | . | -3 | -74 | 14 | 13 | -0.7 | .
COc1cc(C(C)=O)ccc1Oc1ncnc2c1cnn2-c1ccccc1 | -8 | -7 | -4 | -0.2 | -4 | -14 | 7 | 8 | -0.3 | 0.6

Structures listed so far shown as hits in ALR inh.
Molecule | ALR inh | Beta2AR agonist | Ecoli rRNA inh | Ecoli rRNA inh OD600 | Ecoli rRNA inh RFP | LANA-H2B inh
CCOC(=O)c1nnn(-c2nn3nnnc3c3ccccc23)c1C | 98* | 4 | . | . | . | -1.5
CN(C)c1ccc(CNC(=O)c2ccc(CNc3c(N4CCCCC4)c(=O)c3=O)cc2)cc1 | 98* | -2 | 8 | 15 | -1.0 | 3.0

(list continues)
SMILES | ALR inh | Beta2AR agonist | Beta cell apopt | A1 inh | Calb FLC | T cruzi inh | Ecoli rRNA inh | Ecoli rRNA inh OD600 | Ecoli rRNA inh RFP | LANA-H2B inh
C[C@@H](C[C@@H](O)[C@H](O)C(C)(C)O)[C@@H]1CC[C@]2(C)C3=CC[C@H]4C(C)(C)C(=O)CC[C@]4(C)[C@H]3CC[C@@]12C | -5 | 5 | . | 0.6 | -5 | 48 | 3 | 2 | -6.8 | -4.0
Nc1c(C(=O)N2CCCC2)sc2nc(-c3ccccc3)ccc12 | -4 | -3 | -2 | -3.9 | -4 | 11 | -28 | -24 | 0.7 | 1.1
COc1ccccc1Oc1ccc2c(c1)C(=O)N(c1ccc(Br)c3cccnc13)C2=O | -4 | 7 | -6 | 0.5 | 15 | -8 | . | . | . | -0.2
O=C(CSc1nc(Nc2ccccc2)nc(N2CCOCC2)n1)Nc1ccc2c(c1)OCCO2 | -2 | -10 | -4 | -0.3 | -1 | ? | . | . | . | 0.4
Cc1cccc(NC(=O)/C(C#N)=C\c2cn(CC(=O)O)c3ccccc23)c1 | -17 | -1 | 1 | 0.4 | -1 | -1 | 4 | 9 | 2.2 | 5.2
CCn1c(=O)n(CC)c2cc(S(=O)(=O)Nc3ccccc3C)c(C)cc21 | -1 | -7 | 0 | 0.8 | -5 | 8 | -7 | -13 | 0.7 | -2.3
CC(C)Cn1c(C(C)C)nc([N+](=O)[O-])c1Sc1ccc(Cl)cn1 | . | 1 | -7 | -0.4 | 10 | 5 | . | . | . | 4.7
Cc1ccccc1C(=O)Nc1cccc(-c2ccc3nncn3n2)c1 | . | -2 | 11 | -0.5 | -11 | -5 | 1 | 0 | 0.7 | -0.6
NS(=O)(=O)c1ccc(CNC(=O)c2cccc(S(=O)(=O)N3CCc4ccccc43)c2)cc1 | -6 | 9 | 1 | 0.2 | . | . | -8 | -19 | 3.8 | i
CCOc1ccc(-n2c(SC(C)C)nc3c(c2=O)SCC3)cc1 | -1 | -9 | -4 | -0.5 | 15 | 15 | . | . | . | 1.8
CN(C)S(=O)(=O)c1ccc(C(=O)OCC(=O)Nc2ccccc2OC(F)F)cc1 | -15 | 5 | -13 | -0.2 | 14 | -6 | . | . | . | 2.0
O=C(O)c1ccc(-c2noc(-c3cccc(F)c3)n2)cc1 | ? | -4 | -7 | 0.7 | -1 | -16 | -2 | -4 | -0.4 | 4.6
CC(Oc1ccccc1)C(=O)N1CCC2(CC1)Oc1ccc(F)cc1C(=O)C21CC(c2ccc(Cl)cc2)=NO1 (centres undefined) | -11 | -1 | -5 | -0.3 | -7 | 24 | 3 | 9 | -0.9 | -0.8
COC(=O)C1(C)NC(c2ccc(O)cc2)C2C(=O)N(c3ccc(C)cc3)C(=O)C21 (centres undefined) | 1 | -3 | -1 | 0.1 | -12 | -6 | 12 | 8 | 1.6 | 1.8
CCOC(=O)[C@H]1[C@H]2COc3ccc(Cl)cc3[C@@H]2N2C(=O)c3cc(C)ccc3NC(=O)[C@@]12C | . | 8 | 1 | -0.5 | . | . | 5 | 7 | -4.9 | 1.8
Cn1cc(S(=O)(=O)CC(=O)Nc2ccc3c(c2)OCCO3)c2ccccc21 | . | -3 | -8 | 1.1 | -5 | -4 | -7 | -6 | -4.9 | -2.4
COC(=O)c1ccc(O)c(Sc2cc(C(=O)OC)ccc2O)c1 | 88* | 15 | 5 | -0.1 | 9 | -6 | . | . | . | -1.7
COc1cc(C#Cc2ccc3cc(CCCO)oc(=O)c3c2)cc(OC)c1 | -10 | 46* | 0 | 0.3 | . | . | -17 | -8 | -2.4 | 0.5
CCOC(=O)C1=C(C)NC(=O)NC1c1ccc2c(c1)OCCO2 (centres undefined) | -10 | 13 | -8 | 1.5 | -9 | 0 | . | . | . | -2.9
CCC(C)Nc1nc(SC(C(C)=O)C(C)=O)nc(N(C)C)n1 (centres undefined) | 7 | 6 | -2 | 0.1 | 0 | -1 | . | . | . | 0.4
Cc1ccc(N2C(=O)C3NN=C(C(=O)OCc4ccccc4)C3C2=O)c(C)c1 (centres undefined) | 1 | -9 | -6 | 0.7 | 6 | -12 | -1 | -4 | 3.1 | -1.9
O=C(O)c1ccc(CN2C(=O)CSC2=S)cc1 | -16 | -3 | -5 | 0.9 | 98* | 7 | . | . | . | 0.6
Cc1nnc(NC(=O)CSc2nnc(CCNC(=O)c3ccccc3F)n2C)s1 | -1 | -6 | -1 | -0.8 | -5 | -25 | . | . | . | -3.2

Random excerpt: 2 entries already listed.
SMILES | ALR inh | Beta2AR agonist | Beta cell apopt | A1 inh | Calb FLC | T cruzi inh | Ecoli rRNA inh | Ecoli rRNA inh OD600 | Ecoli rRNA inh RFP | LANA-H2B inh
CCC(C)Nc1nc(SC(C(C)=O)C(C)=O)nc(N(C)C)n1 (centres undefined) | 7 | 6 | -2 | 0.1 | 0 | -1 | . | . | . | 0.4
Cc1cnc(NC(=O)c2nn(C)cc2[N+](=O)[O-])s1 | . | 1 | . | . | -3 | -74 | 14 | 13 | -0.7 | .

Assay outcomes from PubChem.

Not all compounds are listed; rates above refer to the full screens.
